# D2 ag = Beta-Arrestin HTS for Positive Allosteric Modulators of the Human D2 Dopamine Receptor: Agonists. D(2) dopamine receptor (Homo sapiens), P14416. DiscoveRx PathHunter D2 beta-arrestin, luminescence, 90 min; 100% = 57 uM dopamine signal. activation, % (concentration not given with the values). 360,000 tested, 0.084% active. AID 624465, 2012; in the data active = activation above about 40%; inconclusive = about 15% to 40%; inactive = below about 15%; note: compound concentration not given in the record; the text of the record calls up to 30% inactive
# Target sequence (P14416 whole entry, looked up): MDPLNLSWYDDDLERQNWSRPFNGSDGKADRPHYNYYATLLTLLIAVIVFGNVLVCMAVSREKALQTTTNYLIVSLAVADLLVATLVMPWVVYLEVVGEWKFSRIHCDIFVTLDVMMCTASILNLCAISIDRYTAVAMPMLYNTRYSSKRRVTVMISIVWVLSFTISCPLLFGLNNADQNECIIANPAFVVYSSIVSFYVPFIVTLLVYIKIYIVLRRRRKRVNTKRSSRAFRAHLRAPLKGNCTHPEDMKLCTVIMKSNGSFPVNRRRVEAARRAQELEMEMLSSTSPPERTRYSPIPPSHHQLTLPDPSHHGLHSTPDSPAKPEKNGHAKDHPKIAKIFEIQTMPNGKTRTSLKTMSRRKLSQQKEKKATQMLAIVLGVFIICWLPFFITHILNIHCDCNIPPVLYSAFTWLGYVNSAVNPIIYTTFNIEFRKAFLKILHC
#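 DiscoveRx PathHunter D2 beta-arrestin cells (2,100/well) attached overnight, then compound-stimulated 90 min at 37 C in HBSS/10 mM HEPES/0.1% Tween-20 buffer; beta-galactosidase complementation read by luminescence after 1 h at ambient temperature. Dopamine 57 uM final (EC100) as control.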
# Sfp inh = qHTS Assay for Inhibitors of Bacillus subtilis Sfp phosphopantetheinyl transferase (PPTase) | 4'-phosphopantetheinyl transferase ffp (Bacillus subtilis), Q9F4F7 | Biochemical Sfp PPTase activity, qHTS | Potency, µM, without a hit: max response, negative = inhibition, most hits filed as inhibitors | 310,000 tested, 3.5% active | AID 1490, 2009; active = well fitted inhibition curve with a large enough effect; inconclusive = small, poorly fitted or top-dose-only effect, or another doubt; inactive = no such curve, though single readings can be large or run the other way;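 note: the enzyme is Sfp with the accession as filed and its product quenches rhodamine fluorescence; potency is the fitted concentration of half-maximal effect; 0% = enzyme reaction without inhibitor and -100% = no enzyme wells; top concentration of the series not given in the record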
#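 Compounds were incubated with enzyme (final 15 nM) for 15 min at room temperature before substrate addition started the reaction. Fluorescence at 525 nm excitation, 598 nm emission was recorded immediately and after 30 minutes.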
# PINK1 modulator = A Quantitative High throughput Screen to Identify Chemical Modulators of PINK1 Expression; PINK1 immunofluorescence, high-content cytometry, 24 h; 410,000 tested, 0.2% active; Potency, µM (titrated, usually from 76.6 µM), without a hit: at the highest dose activation (PINK1 increase), most hits filed as activators; active = well fitted activation curve with a large enough effect; inconclusive = small, poorly fitted or top-dose-only effect; inactive = flat fitted curve, though single readings scatter; cell line not stated here;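 note: potency is the fitted concentration of half-maximal effect; % of control where 0% means no effect; nearly all actives have a fitted effect of over 65% in size; a mitochondrial uncoupler was the plate control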
#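 Stable cell line treated 24 h with compounds at 5 concentrations (CCCP controls), then fixed and immunostained for PINK1 plus nuclear and cell stains; PINK1 immunofluorescence quantified by laser-scanning microplate cytometry.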
# gsp ag = qHTS for Agonist of gsp, the Etiologic Mutation Responsible for Fibrous Dysplasia/McCune-Albright Syndrome: qHTS; Potency, µM (highest dose often 76.9 µM), without a hit: at the top dose activation (cAMP increase), most hits filed as activators; gsp mutant cells, cAMP HTRF, 30 min; control for the full effect not named in the record; AID 624287, 2012; 340,000 tested, 0.13% active; active = well fitted activation curve with a large enough effect; inconclusive = small, poorly fitted or top-dose-only effect, or another doubt; inactive = no such curve, though single readings can be large or run the other way; cell line not stated here;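 note: phosphodiesterase inhibitor Ro 20-1724 added with compounds to block cAMP breakdown; potency is the fitted concentration of half-maximal effect; nearly all actives have a fitted effect of over 60% in size; about a fifth of the inactives were tested at one dose only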
#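 Cells in DMEM/10% FBS with G418 were pretreated with compounds in DMSO plus […] (300 uM stock) for 30 min at 37C. cAMP was measured by HTRF (cAMP-d2 plus anti-cAMP antibody-K) after 30 min at room temperature.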
# gsp antag = qHTS for Antagonists of gsp, the Etiologic Mutation Responsible for Fibrous Dysplasia/McCune-Albright Syndrome: qHTS; gsp-mutant cells, cAMP HTRF, 30 min; control for the full effect not named in the record; Potency, µM (series often up to 76.9 µM), inactives show at the top dose activity change, negative = inhibition, actives largely listed as inhibitors; 340,000 tested, 0.4% active; active = falling curve of any shape with a large fitted effect; inconclusive = falling curve, mostly with a smaller effect; inactive = flat or rising curve; cell line not stated here;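 note: intracellular cAMP measured with PDE inhibitor Ro 20-1724 present during compound exposure; potency is the fitted concentration of half-maximal effect; % is set by controls: 0 for no effect and ±100 for the full control effect; nearly all actives have a fitted effect of over 65% in size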
#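 Measurement of cellular cAMP by homogeneous time-resolved fluorescence following a 30 min compound exposure at 37C. The PDE inhibitor […] was present throughout; the assay buffer was DPBS with 0.05% BSA and 0.005% Tween 20.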
# ClpP mod = qHTS Assay for Activators of ClpP | Potency, µM (doses to about 57.5 µM), for inactives: at the top dose activity change, negative = active | 340,000 tested, 1.9% active | purified B. subtilis ClpP, FRET peptide cleavage, 20 min | ATP-dependent Clp protease proteolytic subunit (Bacillus subtilis (strain 168)), P80244; active = well fitted falling curve with a large enough effect; inconclusive = small, poorly fitted or top-dose-only effect; inactive = no such curve, though single readings can be large or run the other way; note: potency is the fitted concentration of half-maximal effect; the source files actives as falling curves though it sought activators and does not explain the sign; nearly all actives have a fitted effect of over 65% in size; many hits overshoot -100%
# Target sequence (P80244 whole entry, looked up): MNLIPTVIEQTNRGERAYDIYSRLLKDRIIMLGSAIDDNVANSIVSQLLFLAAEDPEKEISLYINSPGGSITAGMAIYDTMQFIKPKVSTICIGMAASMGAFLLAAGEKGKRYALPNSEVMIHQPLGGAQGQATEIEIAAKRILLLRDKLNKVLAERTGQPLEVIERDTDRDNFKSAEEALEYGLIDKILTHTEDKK
#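 Buffer: 100 mM Tris/HCl pH8, 100 mM KCl, 0.05% low protease BSA, 2.5% glycerol, 0.01% Tween-20. ClpP 10 microg/mL final; 20 min RT; delta FRET normalized to ADEP and DMSO controls.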
# Menin-MLL FL inh = qHTS Assay for Inhibitors Targeting the Menin-MLL Interaction in MLL Related Leukemias: Competition With Fluorescein Labeled MLL-derived Peptide. Fluorescence polarization, fluorescein-MLL peptide displacement from menin. FP activity change, % at 61.4 µM. 290,000 tested, under 10 active. AID 1766, 2009; inconclusive = falling polarisation curve, or a change in total fluorescence; inactive = total fluorescence flat and polarisation flat or rising; no compound was filed as active; the % refers to the polarisation; negative = inhibition;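 note: % of control where 0% means no effect; inhibitors lower the polarisation; unlabelled MLL peptide was the positive control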
# The depositor's hits bear a star; ? = inconclusive; · = not tested or not shown; & = joins results of further samples; [ ] = another dose, or the depositor's remark.
SMILES,D2 ag,Sfp inh,PINK1 modulator,gsp ag,gsp antag,ClpP mod,Menin-MLL FL inh
O=C(COc1ccc2ccc(=O)oc2c1)NC1CCCCC1,-3.2,·,-1.8%,7%,-18%,10µM*,·
CNC(=O)C1CC(=O)N(CCc2ccc(OC)cc2)C(=Nc2ccc(OC)cc2)S1 (configuration not stated),-1.1,-2%,1.7%,15%,-10%,-1.4%,1.0
CC1CCCN(S(=O)(=O)c2ccc(S(=O)(=O)N3CCCN(Cc4ccccc4)C3)cc2)C1 (configuration not stated),0.1,-5%,-0.4%[38.3 µM],21%,15%,-0.3%,4.1
COc1ccc(CCNC(=O)COc2ccc(N(C)S(=O)(=O)c3ccc(C)cc3)cc2)cc1OC,-1.9,-7%,3.0%,?,?,·,3.8
Cc1ccc(S(=O)(=O)NNC(=O)Nc2ccc([N+](=O)[O-])cc2)c(C)c1,-3.5,10%,-1.8%,-38%[inhibitor],-26%,-1.7%,·
CCc1nc2ccc(C(=O)NCc3ccc4c(c3)OCO4)cn2c1N(CCC(C)C)CCN(C)C,-4.3,·,3.8%,·,·,-4.2%,·
COCCCNS(=O)(=O)c1ccc(Cl)c(C(F)(F)F)c1,3.4,6%,-1.0%,16%,0%,-1.2%,-0.2
C=C(C)COC(=O)C1CC2OC2CC1C(=O)OCC(=C)C (configuration not stated),-1.0,·,1.4%,2%[15.4 µM],13%,-0.4%,·
COc1cc(OC)c(C(=O)OCN2C(=O)c3ccccc3C2=O)cc1OC,3.5,15%,0.0%,3%,6%,·,3.6
COCCn1nnnc1C(C(C)C)N(Cc1cccnc1)Cc1cc2cc(OC)ccc2[nH]c1=O (configuration not stated),-1.4,15%,1.1%,23%,-9%,25µM*,-2.0
Cc1ccc(C)c(S(=O)(=O)NCC(=O)Nc2sc3c(c2C(N)=O)CCC(C)C3)c1 (configuration not stated),-7.9,5%,?,-5%,-9%,?,4.6
Cc1nnc(SCC(=O)NC(C)(C)C)n1C1CCCCC1,-3.3,17%,0.9%,-13%[15.4 µM],16%,0.5%,1.0
COC(=O)[C@@H]1C[C@@]2(O)[C@H](O)[C@H](O)[C@H](O)C[C@H]2N1Cc1cccc2ccccc12,-0.2,11%&12%,-0.3%,·,6%,1.6%,-3.0&2.4
Nc1nc(-c2ccco2)nn1C(=O)c1ccc(F)cc1,7.3,2%,1.0%,-10%[15.4 µM],6%,-0.9%,-6.8
N#C/C(=C(/O)c1ccc([N+](=O)[O-])cc1)c1nc2ccccc2[nH]1,-1.2,5%,5.3%,17%[15.4 µM],5%,·,-1.9
Cc1ccc(-n2nc3c(=O)n(CC(=O)NC4CCCCC4)nc(C)c3c2C)cc1,0.9,-6%,2.0%,-13%,-8%,0.3%,2.7
COC(=O)c1cc(CNC(=O)c2sccc2-c2ccccc2)ccc1OC,4.4,-1%,-0.1%,-9%,-9%,-3.3%,-4.8
COc1ccc(NC(=O)Cn2nc(C(F)(F)F)c3c2CCCC3)c(OC)c1,-2.4,13%,-2.1%,5%,-8%,0.9%,4.7
CNS(=O)(=O)c1ccc(N2CCCC2)c([N+](=O)[O-])c1,2.5,15%,1.1%,2%,4%,0.6%,4.2
CCC(C)(C)NC(=O)COc1ccc(C(=O)c2ccccc2)cc1,0.8,-9%,3.7%,22%,3%,-1.4%,-0.2
COc1cccc(-n2c(Cc3cc(=O)[nH]c(=O)[nH]3)nnc2SCc2cccnc2)c1,-1.2,4%,1.6%,4%,9%,0.9%,-10
O=C(Nc1nc(-c2ccco2)c(-c2ccco2)s1)c1c(F)cccc1Cl,-2.5,·,13%,-2%,-23%,-7.7%,·
COc1ccc(CC(NC(C)=O)C(=O)NC2CCN(c3c4c(nc5ncnn35)CCC4)CC2)cc1OC (configuration not stated),-0.6,3%,-0.7%,7%[15.4 µM],12%,·,-0.9
COc1ccc(CC(=O)N(Cc2ccccc2)c2ccccc2)cc1S(=O)(=O)N1CCOCC1,-1.3,4%,-1.6%,-6%[15.4 µM],-20%,-12%,0.8
CCCSC1=N/C(=C\C=C\c2ccco2)C(=O)S1,-3.0,32µM*,?,-5%,1%,0.6%,?
NCCCCCc1nnc(SCC(=O)Nc2cccc(Cl)c2)o1,-0.7,2%,0.2%[38.3 µM],3%,8%,-2.3%,-1.5
O=C(CNC(=O)c1ccc([N+](=O)[O-])cc1)N/N=C\c1ccc(OC(=O)c2ccccc2)cc1,2.0,?,-0.7%,-47%[inhibitor],14%,-0.5%,5.6
CN(C)c1ccc(/C=C(\NC(=O)c2ccccc2)C(=O)NCc2cccnc2)cc1,-1.8,13%,1.4%,-3%,?,·,14
CCOC(=O)c1c(C)[nH]c(C(=O)COC(=O)C2CC2)c1C,-0.4,·,1.3%,-17%[15.4 µM],4%,·,·
Cc1ccc(Cl)cc1NC1=NC(=S)N(C(C)C)C12CCCCC2,-0.2,5%,7.3%,-5%,-16%,3.9%,3.0
Cc1ccc2[nH]c(=O)c(CC(=O)O)c(-c3ccccc3)c2c1,-3.5,12%,2.5%,-23%,3%,4.8%,-0.7
CCc1ccc(Oc2cc(C)nc(N)n2)cc1,-1.6,-8%,1.6%,3%,3%,-1.0%,9.7
Cc1ccc(-c2csc3ncnc(-n4nnc5ccccc54)c23)cc1C,-1.0,-21%,-1.7%,15%[15.4 µM],?,-8.8%,5.8
COc1ccc(N=C2SCC(=O)N2c2ccc(OC)cc2)cc1,2.0,-1%,-1.9%[38.3 µM],-8%,-2%,-1.3%,-1.2
FC(F)(F)c1cccc(NC(=S)N(CCCN2CCCC2)Cc2cccn2Cc2ccc(Cl)cc2)c1,-1.9,56µM*,0.1%,-8%[15.4 µM],9%,·,0.0
CCOCC(=O)Nc1cc(C(=O)OC)cc(C(=O)OC)c1,-1.8,-6%,1.7%,-56%[inhibitor],4%,-2.3%,0.1
CCn1c(=O)cc(SCC(=O)NCc2cccnc2)c2ccccc21,-2.4,9%,1.4%[38.3 µM],?,-6%,-11%,0.5
CC1(C)OC(=O)C(=NNc2ccccc2)C(=O)O1,-2.7,12%,-1.6%,-6%,6%,1.6%,7.1
COC(=O)c1ccc(SCC(=O)NC2CCCC2)c([N+](=O)[O-])c1,-5.8,2%,1.4%,-4%[15.4 µM],7%,1.7%,1.5
CCOc1ccc(NC(=O)Nc2ccc3nccnc3c2)cc1,-1.3,13%,-2.1%,-9%,-6%,-1.3%,-1.7
C=CCOc1ccccc1CN1CCC(n2nccc2NC(=O)c2ccccc2)CC1,-4.3,11%,0.0%,-4%,22%,1.2%,0.2
C[C@@H]1CN([C@@H](C)CO)S(=O)(=O)c2ccc(Br)cc2O[C@H]1CN(C)Cc1ccccn1,-11,·,1.7%,-6%,·,-0.4%,·
COc1ccc(N2CCN(C(=O)CNS(=O)(=O)c3ccc(C)cc3)CC2)cc1,-0.7,7%,0.3%,8%[15.4 µM],-8%,·,-2.0
Cc1ccc(-c2nnc(SCC(=O)NCC3CCCO3)n2C)cc1 (configuration not stated),-2.8,3%,0.6%,11%,7%,-3.5%,0.0
Cn1c(SCC(=O)N2CCOCC2)nc(O)cc1=O,-0.3,4%,2.9%[38.3 µM],-30%,4%,-0.1%,-2.3
C#CCN(CC=C)C(=O)c1ccc2nc(C3CCCCC3)oc2c1,-3.2,6%,1.1%,-2%,-6%,-3.8%,-1.3
O=C(Nc1ccc(OC(F)(F)F)cc1)C1CC(=O)N(Cc2ccco2)C1 (configuration not stated),-4.9,·,-2.0%,4%,8%,-2.2%,·
CCCNC(=O)C1CNc2ccccc2O1 (configuration not stated),-1.8,4%,-0.9%,5%,7%,-0.5%,3.2
CC[n+]1ccc(C(=O)NCc2ccccc2)cc1,-0.9,2%,0.3%,-4%,-10%,·,1.8
COc1ccc2[nH]cc(CCNS(=O)(=O)c3ccccc3)c2c1,-2.1,-3%,-0.6%,0%[15.4 µM],-3%,·,15
Cc1cccc(NC(=O)c2ccc(S(=O)(=O)N(C)CC3CCCO3)cc2)c1C (configuration not stated),-1.2,·,2.2%,1%,4%,0.5%,·
Cc1oc(-c2ccccc2)nc1CSc1nc2c(c(=O)[nH]1)CCC2,1.9,10%,0.2%,12%,-6%,-1.6%,2.5
C/C=C(\C)C(=O)N[C@@H](C)CN1C2=NC[C@H](C(C)C)N2C[C@H]1Cc1ccc(OC)cc1,-1.1,40µM*,1.3%,·,7%,-0.1%,-0.1
NC(=O)c1ccccc1NC(=S)NC(=O)CCc1ccccc1,-6.5,28µM*,8.2%,-8%,24%,-5.1%,5.2
O=C(COc1ccc(S(=O)(=O)N2CCCC2)cc1Cl)NC1CCCC1,-3.4,23%,-2.5%[38.3 µM],-17%,0%,0.5%,?
Cn1c(=O)c2c(nc(NCCc3ccccc3)n2CC(=O)NCCc2ccccc2)n(C)c1=O,-4.0,13%,1.4%,?,5%,-0.4%,1.8
CC1CCCN(CCCNC(=O)c2coc3nc4ccccc4nc23)C1 (configuration not stated),-2.8,-6%,-3.6%,?,3%,13µM*,9.6
O=C(N/N=C/C(Cl)=C/c1ccccc1)c1ccccn1,-0.4,-22%,0.6%,1%[15.4 µM],-12%,-0.1%,-0.6
Cc1onc(-c2c(Cl)cccc2Cl)c1C(=O)NNc1ccccc1,-8.2,-2%,-1.2%,2%[15.4 µM],-3%,-3.0%,-0.1
Nc1ccc(N2CCOCC2)c(Cl)c1,-0.7,15%,0.1%,-11%,-4%,0.6%,-2.1
CN(Cc1ccccc1)S(=O)(=O)c1cccc2cccnc12,-5.4,6%,-0.8%,-11%,-8%,1.2%,4.5
